GLA inh pH 4.5: qHTS Assay for Inhibitors of Human alpha-Galactosidase at pH 4.5; activity change, negative = inhibition, % at 105 µM; Alpha-galactosidase A (Homo sapiens), P06280; purified enzyme, 4-MU-alpha-Gal fluorescence, pH 4.5; 230,000 tested, under 10 active; AID 1467, 2008; inconclusive = small, poorly fitted or top-dose-only inhibition, or a rising curve; inactive = flat fitted curve, though single readings scatter; no compound was filed as active;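 further: 0% = full activity with enzyme and -100% = basal without enzyme; dose as in the result columns while the protocol names 77 µM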
Rango dissoc inh: qHTS Assay for Inhibitors of RanGTP induced Rango (Ran-regulated importin-beta cargo) - Importin beta complex dissociation; Snurportin-1 (Homo sapiens) + GTP-binding nuclear protein Ran (Homo sapiens) + Importin …; Biochemical FRET Rango-importin beta, RanGTP-induced dissociation; Potency, µM (doses to about 46.1 µM), without a hit: at the top dose activity change, negative = inhibition; 340,000 tested, 0.071% active; AID 540253, 2011; active means falling FRET ratio curve, often poorly fitted, with flat reads before Ran was added; inconclusive means other falling curves, or compound fluorescence or quenching; inactive means flat or rising ratio curve;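 further: potency means the concentration at half of the fitted maximal effect; % of control where 0% means no effect; nearly all actives have a fitted effect of over 45% in size; -100% = wells without RanGTP and RCC1; the record marks most hits as doubtful in a second field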
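Rango FRET biosensor (snurportin-1 IBB flanked by N-terminal EYFP and C-terminal CFP10) at 0.1 uM, with 0.25 uM importin beta in PBS, 1mM DTT, 0.02% Tween-20, 0.1% BSA. 0.6 uM Ran, 2mM GTP and 0.2 uM RCC1 were then added for 45 min at room temperature. Inhibition read as loss of FRET rise.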
Rango-impB inh: qHTS Assay for Inhibitors of Rango (Ran-regulated importin-beta cargo) - Importin beta complex formation. Importin subunit beta-1 (Homo sapiens), Q14974. Rango CFP/YFP FRET sensor + importin beta, 45 min. Potency, µM (titrated, usually from 92.2 µM), for the others: top-dose inhibition of complex formation. 340,000 tested, 0.031% active; active = rising FRET ratio curve, often small or poorly fitted; inconclusive = mostly compound fluorescence or quenching in the first reads; inactive = flat curves in all reads;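 further: potency means the concentration at half of the fitted maximal effect; 0% = DMSO wells and 100% = buffer wells lacking importin beta; nearly all actives have a fitted effect of over 15% in size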
Target sequence (Q14974 whole entry, looked up): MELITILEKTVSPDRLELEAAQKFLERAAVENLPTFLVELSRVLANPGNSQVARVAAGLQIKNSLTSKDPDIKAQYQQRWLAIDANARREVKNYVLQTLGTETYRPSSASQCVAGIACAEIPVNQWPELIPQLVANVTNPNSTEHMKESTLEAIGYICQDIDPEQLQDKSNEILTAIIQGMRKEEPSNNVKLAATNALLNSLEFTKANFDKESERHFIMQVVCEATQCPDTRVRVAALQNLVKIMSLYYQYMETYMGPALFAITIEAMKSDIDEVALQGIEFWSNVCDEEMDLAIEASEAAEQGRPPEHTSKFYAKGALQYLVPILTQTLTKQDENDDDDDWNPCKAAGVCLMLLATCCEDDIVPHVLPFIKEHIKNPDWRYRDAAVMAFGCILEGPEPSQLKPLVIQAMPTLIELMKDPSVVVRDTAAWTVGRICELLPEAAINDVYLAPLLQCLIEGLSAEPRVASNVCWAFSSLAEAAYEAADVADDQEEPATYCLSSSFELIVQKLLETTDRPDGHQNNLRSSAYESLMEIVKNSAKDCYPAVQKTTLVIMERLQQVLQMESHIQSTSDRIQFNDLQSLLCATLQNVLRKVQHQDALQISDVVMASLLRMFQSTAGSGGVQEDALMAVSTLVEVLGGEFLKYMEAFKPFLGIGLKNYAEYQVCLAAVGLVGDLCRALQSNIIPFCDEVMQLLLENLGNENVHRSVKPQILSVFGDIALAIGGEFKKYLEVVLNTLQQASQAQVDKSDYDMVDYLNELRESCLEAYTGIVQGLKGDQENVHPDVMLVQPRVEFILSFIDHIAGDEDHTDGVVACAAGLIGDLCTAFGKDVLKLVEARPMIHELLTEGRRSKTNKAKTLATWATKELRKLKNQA
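FRET biosensor Rango (snurportin 1 IBB between N-terminal EYFP and C-terminal Cerulean), 50 nM in PBS/1 mM DTT/0.02% Tween-20/0.1% BSA, preincubated 5 min RT with compound; 0.125 microM importin beta added, 45 min RT, CFP/YFP FRET ratio read.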
miR-21 FLuc: qHTS Assay for Modulators of miRNAs and/orActivators of miR-21; AID 2288, 2010; HeLa miR-21 FLuc reporter, luciferase, 48 h; 340,000 tested, under 10 active; Potency, µM (doses to about 38.3 µM), inactives show at the highest dose reporter change, positive = more light; active = well fitted rising curve with a large enough effect; inconclusive = small, poorly fitted or top-dose-only effect; inactive = no such curve, though single readings can be large or run the other way;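 further: % of control where 0% means no effect; miR-21 action dims this reporter so a rising signal means less miR-21 action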
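HeLa miR-21-FLuc reporter line, endogenous miR-21; 2000 cells/well in DMEM/10% FBS; compound titration up to ~40uM final, 48 h, 37 degree Celsius; luciferase detection reagent, 15 min lysis, CCD luminescence.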
The depositor's hits bear a star; ? = inconclusive; nt = not tested or not shown. Some of the compounds tested; rates above refer to the full screens.

SMILES	GLA inh pH 4.5	Rango dissoc inh	Rango-impB inh	miR-21 FLuc
Cc1ccc(CNc2ncnc3c2cnn3-c2ccccc2)cc1	-8	1%	-2.6%	-1%
COC(=O)CSc1nnc(CNC(=O)c2ccc(OC)cc2OC)n1C	1	0%	-0.7%	-5%
CCC1=[N+](CC(=O)c2ccc(C)cc2)CCn2c(C)ccc21	3	-29%	?	-28%
O=C(c1cc(-c2ccccc2)nn1-c1ccccc1)N1CCN(S(=O)(=O)c2c(F)cccc2F)CC1	nt	-2%	-6.2%	nt
COc1ccc(CCNc2oc(COc3ccccc3Cl)nc2C#N)cc1OC	-15	?	?	-7%
Cc1nn(Cc2ccccc2Cl)c2sc(C(=O)Nc3nccs3)cc12	8	9%	0.9%	-18%
COCc1cc(=O)[nH]c(N2CCN(C(=O)c3ccco3)CC2)n1	nt	0%	1.9%	0%
Brc1ccc(CN2CCSCC2)cc1	-1	2%	2.1%	-1%
C=CCn1c(SCCOC)nc2c1c(=O)[nH]c(=O)n2C	5	1%	3.2%	-10%
CCOc1ccc(/C=N/NC(=O)C2CC2)cc1OC	nt	12%	-0.6%	-13%
C=CCn1c(SCC(=O)/C(C#N)=C(\C)N)nnc1C1CCCCC1	-1	1%	-3.8%	-1%
C=CCN(C(=O)c1csnn1)C(C(=O)NCc1ccccc1)c1ccccc1F (centres undefined)	nt	5%	-0.2%	-1%
Cc1cc(C)cc(NC(=O)C(c2ccccc2)N2CCN(CC(=O)NC3CC3)CC2)c1 (centres undefined)	nt	-2%	-5.1%	nt
CCc1ccc(NC(=O)c2cc(-c3ccco3)on2)cc1	-30	15%	1.1%	-23%
CCCc1ccc(OCCNC(=O)C2CCCCC2)cc1	2	-1%	4.8%	1%
O=C(CNc1cccc([N+](=O)[O-])c1)N1CCN(S(=O)(=O)c2ccc(Cl)cc2)CC1	nt	-6%	-0.6%	nt
Cc1cc(C)nc(SCCCNCc2ccccc2)n1	nt	-12%	?	-6%
CN1C2C=C3C(C#N)=C(N)C(C#N)(C#N)[C@@H](c4ccc(Cl)cc4)[C@@H]3C1CC2 (some centres undefined)	-14	?	?	-5%
CCOc1cc(C(=O)O/N=C(\N)c2ccccn2)cc(OCC)c1OCC	nt	9%	-3.2%	4%
Cn1c(=O)oc2cc(S(=O)(=O)N3CCC(C(=O)N4CC=C(c5ccccc5)CC4)CC3)ccc21	-16	3%	-0.1%	3%
CCOc1ncccc1C(=O)Nc1ccc(S(=O)(=O)N2CC(C)CC(C)C2)cc1 (centres undefined)	nt	-11%	-0.7%	nt
COCCN(CCOC)S(=O)(=O)c1ccc(Cl)nc1	-2	-3%	2.6%	-2%
Brc1ccc(-c2nnc(-c3cccc(Br)c3)o2)cc1	3	22%	-0.6%	-17%
O=C(Cc1ccc(F)cc1)Nc1ccc2[nH]ncc2c1	nt	0%	-2.8%	0%
Cc1cc(C)c(C(=O)NCC(=O)c2ccccc2)c(C)c1	nt	-12%	-1.7%	nt
Going on with the list:
SMILES	GLA inh pH 4.5	Rango dissoc inh	Rango-impB inh	miR-21 FLuc
CC1CCC(NC(=O)c2nn(C)c3c2CSc2ccccc2-3)CC1 (centres undefined)	nt	-8%	5.1%	-8%
O=C(NCc1ccc2c(c1)OCO2)c1cc(S(=O)(=O)N2CCCCC2)ccc1F	-9	17%	?	-10%
CN(Cc1nccs1)C(=O)C1CCC(=O)N(Cc2ccccc2F)C1 (centres undefined)	nt	18%	-1.7%	-1%
CC(C)c1ccc(-c2nn[nH]n2)cc1	-2	9%	3.1%	-23%
NC(=O)C1CCN(CC(=O)Nc2nc(-c3ccccc3)cs2)CC1	nt	-5%	5.8%	-9%
O=C(O)C1C2CCC(C2)C1C(=O)NCCc1cccc(Cl)c1 (centres undefined)	nt	-5%	-1.3%	-5%
O=C(O)CCCCCNC(=O)Nc1ccc2c(c1)OCCO2	nt	3%	-1.7%	-15%
FC(F)(F)c1nc2ccccc2n2c(-c3c(Cl)cccc3Cl)nnc12	-1	0%	-2.0%	6%
Oc1ccc(Cc2ccccc2)c2cccnc12	nt	20%	7.6%	nt
O=C(O)/C=C\C(=O)Nc1ccccc1C(=O)N1CCC(O)(c2ccc(Cl)cc2)CC1	nt	0%	-2.6%	nt
CN(c1nc(-c2ccccc2)cs1)C1CCS(=O)(=O)C1 (centres undefined)	-7	-2%	-4.9%	-37%
COc1ccc(-n2c(=S)[nH]c3cc(C(=O)NCc4ccco4)ccc3c2=O)c(OC)c1	0	4%	-6.0%	-1%
Cc1ccc(NS(=O)(=O)c2c(C)nc3sccn3c2=O)c(C)c1	nt	2%	1.2%	-1%
Oc1c(CN2CCN(c3ccccn3)CC2)cc(Cl)c2cccnc12	-5	?	-0.4%	22%
CC(C)C(NC(=O)/C(=C/c1ccco1)NC(=O)c1ccc(Br)o1)C(=O)O (centres undefined)	nt	-22%	2.5%	-1%
O=C(NC1CCCCC1)C(c1ccc(F)cc1)N(C(=O)c1cccs1)c1ccc2c(c1)OCO2 (centres undefined)	2	-18%	-1.2%	-2%
CC(C)(C)c1cc(NC(=O)CSc2nnc(NCc3ccccc3)s2)n(-c2ccccc2)n1	5	-18%	-0.4%	20%
CCOC(=O)[C@H]1[C@H]2COc3ccc(OC)cc3[C@@H]2N2C(=O)CN(CC3CCCO3)C(=O)[C@@]12C (some centres undefined)	nt	18%	0.3%	nt
COc1cccc(C2=NOC(C(=O)NCCCn3ccnc3)C2)c1 (centres undefined)	1	8%	-0.6%	5%
Cc1cc(=O)oc2cc(OCc3ccc(S(=O)(=O)N4CCOCC4)cc3)ccc12	0	1%	-5.5%	-2%
Nc1nc2c(nnn2Cc2ccc(Cl)c(Cl)c2)c(=O)[nH]1	nt	-12%	2.0%	nt
O=C(Nc1cccc(Cl)c1)c1ccc(F)c(S(=O)(=O)NCc2cccs2)c1	3	2%	-2.7%	?
Cc1ccc2c(n1)CC(C)(C)C/C2=N\O	-2	12%	1.2%	0%
Cc1ccccc1NC(=S)N/N=C1\CC(C)(C)Oc2ccc(O)cc21	-13	-16%	-0.8%	23%
O=C(COC(=O)c1cc(-c2cccc(Br)c2)nc2ccccc12)NCC1CCCO1 (centres undefined)	-14	9%	3.8%	-20%
Other entries follow.
SMILES	GLA inh pH 4.5	Rango dissoc inh	Rango-impB inh	miR-21 FLuc
O=C(NC1CCN(C(=S)Nc2ccc(Cl)cc2)CC1)C1CCCCC1	nt	7%	3.4%	2%
O=C(C[n+]1ccccc1)c1ccc(Cl)cc1	nt	7%	-1.9%	0%
CC(=O)N1CCN(S(=O)(=O)c2cccc(C(=O)Nc3nc4c(s3)CCCC4)c2)CC1	8	-7%	0.1%	3%
CCCCc1ncc(CN2CCC(n3nccc3NC(=O)c3ccccc3Cl)CC2)[nH]1	nt	9%	0.6%	-9%
O=C(NN=C(Cc1ccccc1)Cc1ccccc1)c1ccccc1O	0	1%	-0.7%	-19%
Cc1cc(Nc2cccc([N+](=O)[O-])c2)n2c(nc3ccccc32)c1C#N	-5	-1%	-1.1%	17%
Cc1ccc2nc(NC(=O)c3ccc(Br)o3)sc2c1	nt	10%	-1.6%	-52%
OCC[C@H]1C[C@H](O)[C@@H](O)[C@]2(Cc3ccccc3O2)O1	nt	-11%	-1.9%	nt
Cc1onc(-c2ccccc2Cl)c1C(=O)Nc1nnc(-c2ccc(F)cc2)s1	8	12%	3.4%	-10%
N#CCCCSC1=C(C#N)C(c2ccccc2Cl)CC(=O)N1 (centres undefined)	-7	-12%	-4.5%	-6%
COc1ccc(Oc2coc3cc(OC(=O)/C=C/c4ccc(F)cc4)ccc3c2=O)cc1	5	-14%	-3.5%	-11%
CC(=O)c1ccc(NC(=O)CSc2n[nH]c(-c3cccnc3)n2)cc1	nt	7%	?	-5%
CCN(CC)S(=O)(=O)c1cccc(-c2nnc(SCC(=O)NC3CCCC3)n2N)c1	-2	-15%	-0.2%	-3%
COc1ccc(-c2noc(CCC(=O)NC3CCCC3)n2)cc1	-3	-11%	-0.8%	-7%
COc1cc(NC(=O)c2cccc(Cl)c2)c(OC)cc1NC(=O)CN1CCOCC1	4	-17%	-0.8%	-2%
O=C(O)c1sc2cccc(Cl)c2c1Cl	7	3%	-2.0%	3%
Cc1ccc(C)c(N2CCN(C(=O)Cc3ccc(-n4c(=O)[nH]c5ccsc5c4=O)cc3)CC2)c1	-2	-13%	-0.4%	-13%
COc1ccccc1NC(=O)/C(=C\c1cccnc1)NC(=O)c1ccccc1	nt	-7%	2.5%	-1%
CC(Oc1ccc(Cl)cc1)C(=O)Nc1ccccc1N1CCOCC1 (centres undefined)	nt	0%	5.4%	nt
COc1cc(/C=N/NC(=O)c2ccc3nc[nH]c3c2)ccc1O	-15	-12%	4.6%	3%
O=C(c1cc(F)c(F)cc1Cl)N1CCN(c2ncccn2)CC1	nt	-14%	-3.6%	10%
COc1ccc(OC)c(C(=O)c2ccc(C(=O)Nc3ccccc3)cc2)c1	4	-7%	-0.3%	-1%
O=[N+]([O-])c1ccc(-c2nc(-c3ccncc3)no2)cc1	6	3%	0.0%	-24%
CNC(=O)NC(=O)C(NC1CCCc2ccccc21)c1ccccc1 (centres undefined)	nt	?	?	1%
CCCCC(=O)Nc1cccc(NC(=S)NC(=O)Cc2ccccc2)c1	6	8%	-0.3%	-12%
CCOc1ccc(NC(=O)c2cccc(-n3cnnn3)c2)cc1	3	1%	-1.0%	-16%
Cc1ccc2c(c1)C1(OCCCO1)C(=O)N2	nt	1%	-1.1%	-1%
COc1ccc(C2C(C#N)=C(N)Oc3cc(N)ccc32)cc1OC (centres undefined)	-1	?	?	17%
CCOC(=O)c1c(C)[nH]c(C)c1C(=O)COC(=O)/C=C/c1ccccc1[N+](=O)[O-]	nt	-16%	-0.5%	nt
CN(C)c1cc(-c2ccc([N+](=O)[O-])cc2)oc(=O)c1Cl	-12	-10%	2.4%	-4%

By substructure: those above with an aryl methoxy group (13)
SMILES	GLA inh pH 4.5	Rango dissoc inh	Rango-impB inh	miR-21 FLuc
COC(=O)CSc1nnc(CNC(=O)c2ccc(OC)cc2OC)n1C	1	0%	-0.7%	-5%
COc1ccc(CCNc2oc(COc3ccccc3Cl)nc2C#N)cc1OC	-15	?	?	-7%
CCOc1ccc(/C=N/NC(=O)C2CC2)cc1OC	nt	12%	-0.6%	-13%
COc1ccc(-n2c(=S)[nH]c3cc(C(=O)NCc4ccco4)ccc3c2=O)c(OC)c1	0	4%	-6.0%	-1%
CCOC(=O)[C@H]1[C@H]2COc3ccc(OC)cc3[C@@H]2N2C(=O)CN(CC3CCCO3)C(=O)[C@@]12C (some centres undefined)	nt	18%	0.3%	nt
COc1cccc(C2=NOC(C(=O)NCCCn3ccnc3)C2)c1 (centres undefined)	1	8%	-0.6%	5%
COc1ccc(Oc2coc3cc(OC(=O)/C=C/c4ccc(F)cc4)ccc3c2=O)cc1	5	-14%	-3.5%	-11%
COc1ccc(-c2noc(CCC(=O)NC3CCCC3)n2)cc1	-3	-11%	-0.8%	-7%
COc1cc(NC(=O)c2cccc(Cl)c2)c(OC)cc1NC(=O)CN1CCOCC1	4	-17%	-0.8%	-2%
COc1ccccc1NC(=O)/C(=C\c1cccnc1)NC(=O)c1ccccc1	nt	-7%	2.5%	-1%
COc1cc(/C=N/NC(=O)c2ccc3nc[nH]c3c2)ccc1O	-15	-12%	4.6%	3%
COc1ccc(OC)c(C(=O)c2ccc(C(=O)Nc3ccccc3)cc2)c1	4	-7%	-0.3%	-1%
COc1ccc(C2C(C#N)=C(N)Oc3cc(N)ccc32)cc1OC (centres undefined)	-1	?	?	17%

Compound activity: PubChem BioAssay, National Center for Advancing Translational Sciences (NCATS)
